Assay outcomes deposited in PubChem BioAssay by National Center for Advancing Translational Sciences (NCATS).
GLA inh pH 4.5 = inhibitors of human alpha-galactosidase A at pH 4.5 | P06280 | activity change, negative = inhibition, % at 105 µM | purified enzyme, 4-MU-alpha-Gal fluorescence, pH 4.5 | AID 1467 | 230,000 tested, under 10 active; inconclusive = small, poorly fitted or top-dose-only inhibition, or a rising curve; inactive = flat fitted curve, though single readings scatter; no compound was filed as active;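 note: 0% = full activity with enzyme and -100% = basal without enzyme; dose as in the result columns while the protocol names 77 µM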
Target sequence (P06280 whole entry, looked up): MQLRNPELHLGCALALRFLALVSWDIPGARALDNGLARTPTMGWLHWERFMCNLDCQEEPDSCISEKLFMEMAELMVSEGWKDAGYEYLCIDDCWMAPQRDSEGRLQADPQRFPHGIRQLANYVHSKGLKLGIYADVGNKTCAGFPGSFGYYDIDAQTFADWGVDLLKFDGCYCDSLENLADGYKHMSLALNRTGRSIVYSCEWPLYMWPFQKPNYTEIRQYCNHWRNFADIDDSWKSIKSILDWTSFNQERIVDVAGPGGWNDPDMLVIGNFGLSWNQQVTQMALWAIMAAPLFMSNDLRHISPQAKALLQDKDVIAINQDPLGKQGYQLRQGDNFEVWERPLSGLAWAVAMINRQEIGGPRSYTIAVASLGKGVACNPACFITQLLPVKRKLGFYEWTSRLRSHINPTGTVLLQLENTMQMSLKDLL
Rango-impB inh = Rango-importin beta binding inhibition; 0.031% of 340,000 active; Potency, µM (series often up to 92.2 µM), for the others: at the top dose inhibition of complex formation; Q14974; Rango CFP/YFP FRET sensor + importin beta, 45 min; active = rising FRET ratio curve, often small or poorly fitted; inconclusive = mostly compound fluorescence or quenching in the first reads; inactive = flat curves in all reads;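 note: potency is the fitted concentration of half-maximal effect; 0% = DMSO wells and 100% = buffer wells lacking importin beta; nearly all actives have a fitted effect of over 15% in size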
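FRET biosensor (snurportin 1 IBB flanked by EYFP and cerulean), 50 nM, with compound 5 min, then 0.125 microM importin beta in PBS, 1 mM DTT, 0.02% Tween-20, 0.1% BSA. CFP/YFP ratio read after 45 min at room temperature; pre-read flags interference.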
Rango release inh = prevents RanGTP from dissociating the Rango-importin beta complex | 0.071% of 340,000 active | Biochemical FRET Rango-importin beta, RanGTP-induced dissociation | Potency, µM (top dose mostly 46.1 µM), for inactives: at the highest dose activity change, negative = inhibition | AID 540253; active means falling FRET ratio curve, often poorly fitted, with flat reads before Ran was added; inconclusive means other falling curves, or compound fluorescence or quenching; inactive means flat or rising ratio curve;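 note: potency is the fitted concentration of half-maximal effect; % of control where 0% means no effect; nearly all actives have a fitted effect of over 45% in size; -100% = wells without RanGTP and RCC1; the record marks most hits as doubtful in a second field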
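Quantitative HTS using a FRET biosensor: 0.1 uM Rango, 0.25 uM importin beta, 0.6 uM Ran, 2 mM GTP, 0.2 uM RCC1 final, PBS with DTT, Tween-20 and BSA. Post-read taken 45 min after Ran addition.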
miR-21 FLuc = miR-21 reporter, rising signal; HeLa miR-21 FLuc reporter, luciferase, 48 h; Potency, µM (titrated, usually from 38.3 µM), for inactives: at the highest dose reporter change, positive = more light; 340,000 tested, under 10 active; AID 2288; active = well fitted rising curve with a large enough effect; inconclusive = small, poorly fitted or top-dose-only effect; inactive = no such curve, though single readings can be large or run the other way;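 note: % of control where 0% means no effect; miR-21 action dims this reporter so a rising signal means less miR-21 action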
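HeLa miR-21-FLuc reporter line, endogenous miR-21; 2000 cells/well in DMEM/10% FBS; compound titration up to ~40uM final, 48 h, 37 degree Celsius; luciferase detection reagent, 15 min lysis, CCD luminescence.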
* hit, by the source's call; ? = inconclusive; . = not tested or not shown; & = joins results of further samples; [ ] = dose if it differs, or a comment. Some of the compounds tested; rates above refer to the full screens.

The first 13 records, to show the layout:
SMILES	GLA inh pH 4.5	Rango-impB inh	Rango release inh	miR-21 FLuc
C/C(=N\N=C(/N)SC1CC(=O)N(c2cccc(Cl)c2)C1=O)c1cccs1 (stereo not drawn)	-28	-2.0%	-4%	9%
Clc1cccc(OCCn2ccnc2)c1	.	5.2%	2%	-5%
CC1CCc2cc(F)ccc2N1C(=O)CSc1nnc(-c2cccs2)n1C (stereo not drawn)	-21	-0.3%	0%	-8%
CC(=O)Nc1ccc(OC(=O)c2cc3ccccc3oc2=O)cc1	2	3.0%	6%	-17%
COc1ccccc1N1CCN(C2CC(=O)N(C)C2=O)CC1 (stereo not drawn)	-1	-3.3%	-25%	-5%
CCc1cccc(NC(=S)N(CCN(C)C)C(C)c2ccncc2)c1 (stereo not drawn)	2	6.3%	-6%	0%
CC1(C)CC(=O)c2c(nc(SCC(=O)Nc3nsc(-c4ccccc4)n3)c(C#N)c2-c2ccccc2)C1	3	-2.1%	1%	8%
CN1CCN(C(=O)c2ccc(NS(=O)(=O)c3cccc([N+](=O)[O-])c3)cc2)CC1	.	-1.8%	3%	.
CCCc1cc(=O)[nH]c(SCC(=O)Nc2nonc2C)n1	.	1.5%	5%	0%
Cc1cc(S(=O)(=O)N2CCOCC2)ccc1OCC(=O)N1CCC(C)CC1	.	1.2%	-13%	-1%
O=C(Nc1cc(C(F)(F)F)ccc1-n1cnc2ccccc21)c1ccccc1	-2	0.0%	0%	-4%
CCN(CC(O)CON=C1c2ccccc2-c2ccccc21)S(=O)(=O)c1ccc(C)cc1 (stereo not drawn)	-3	-5.4%	1%	7%
COc1cccc(-c2[nH]nc3c2C(c2ccc(C)o2)C(C#N)=C(N)O3)c1 (stereo not drawn)	3	4.4%	22%	0%

Main list, repeating the preview:
SMILES	GLA inh pH 4.5	Rango-impB inh	Rango release inh	miR-21 FLuc
C/C(=N\N=C(/N)SC1CC(=O)N(c2cccc(Cl)c2)C1=O)c1cccs1 (stereo not drawn)	-28	-2.0%	-4%	9%
Clc1cccc(OCCn2ccnc2)c1	.	5.2%	2%	-5%
CC1CCc2cc(F)ccc2N1C(=O)CSc1nnc(-c2cccs2)n1C (stereo not drawn)	-21	-0.3%	0%	-8%
CC(=O)Nc1ccc(OC(=O)c2cc3ccccc3oc2=O)cc1	2	3.0%	6%	-17%
COc1ccccc1N1CCN(C2CC(=O)N(C)C2=O)CC1 (stereo not drawn)	-1	-3.3%	-25%	-5%
CCc1cccc(NC(=S)N(CCN(C)C)C(C)c2ccncc2)c1 (stereo not drawn)	2	6.3%	-6%	0%
CC1(C)CC(=O)c2c(nc(SCC(=O)Nc3nsc(-c4ccccc4)n3)c(C#N)c2-c2ccccc2)C1	3	-2.1%	1%	8%
CN1CCN(C(=O)c2ccc(NS(=O)(=O)c3cccc([N+](=O)[O-])c3)cc2)CC1	.	-1.8%	3%	.
CCCc1cc(=O)[nH]c(SCC(=O)Nc2nonc2C)n1	.	1.5%	5%	0%
Cc1cc(S(=O)(=O)N2CCOCC2)ccc1OCC(=O)N1CCC(C)CC1	.	1.2%	-13%	-1%
O=C(Nc1cc(C(F)(F)F)ccc1-n1cnc2ccccc21)c1ccccc1	-2	0.0%	0%	-4%
CCN(CC(O)CON=C1c2ccccc2-c2ccccc21)S(=O)(=O)c1ccc(C)cc1 (stereo not drawn)	-3	-5.4%	1%	7%
COc1cccc(-c2[nH]nc3c2C(c2ccc(C)o2)C(C#N)=C(N)O3)c1 (stereo not drawn)	3	4.4%	22%	0%
CCN(CC(=O)NCc1cccs1)C(=O)/C=C/c1ccc(OC)c(OC)c1	.	2.3%	0%	.
O=C(Cn1nnc2ccccc21)OCC(=O)c1ccc(Cl)c(Cl)c1	-1	1.8%	-1%	0%
CC1(C)Cc2cccc(OCC(=O)N3CCN(S(=O)(=O)c4ccc(F)cc4)CC3)c2O1	-5	0.6%	0%	-24%
COc1ccc([N+](=O)[O-])cc1NC(=O)CCc1ccccc1	6	?	0%	-3%
CCN1CCN(C(=O)c2oc(=O)c3ccccc3c2-c2ccc(C)cc2)CC1	3	-1.7%	2%	-12%
O=C(O)c1cc(N/N=C2/CC(c3ccccc3)Oc3ccccc32)ccc1Cl (stereo not drawn)	-9	?	?	-44%
O=C(CSc1nnc(-c2cccnc2)n1Cc1ccco1)NCc1ccc2c(c1)OCO2	-5	?	-15%	-2%
CCn1ncc(Br)c1C(=O)Nc1ccc2c(c1)OCCO2	-2	3.9%	9%	-36%
CN(C)C(=O)COC(=O)c1ccccc1OCC(=O)Nc1ccc(SC(F)F)cc1	-1	-0.1%	2%	-3%
Cc1csc(=O)n1CCC(=O)OC(C)C(=O)Nc1ccc(N2CCOCC2)cc1 (stereo not drawn)	.	8.2%	-2%	.
c1cc2c(cc1-c1cnc3n1CCC3)OCCO2	3	0.4%	3%	10%
O=C(COc1ccc(Cl)cc1)Nc1ccccc1N1CCOCC1	-7	.	.	-5%
Clc1nc(-c2ccccc2)ncc1Oc1ccccc1	.	0.0%	11%	.
CCS(=O)(=O)N1CCN(c2ccccn2)CC1	-8	0.1%	-1%	-2%
COc1ccc(N2C(=O)C3CCCN3C2c2ccccc2F)cc1 (stereo not drawn)	3	4.0%	3%	-14%
Cc1cccnc1NC(=O)Nc1cccc(C(F)(F)F)c1	-4	-3.9%	10%	-5%
Cn1c(CNC(=O)c2ccco2)nnc1SCC(=O)Nc1cccc(F)c1	2	0.1%	2%	1%
Cc1nnc(SCC(=O)Nc2cccc(C(F)(F)F)c2)n1Cc1ccco1	-9	0.9%	0%	3%
CCn1nc(C)cc1-c1nnc(Sc2ncc([N+](=O)[O-])s2)n1C	.	-2.0%	10%	?
COc1ccc(C=Nc2cccc3c(=O)[nH][nH]c(=O)c23)c2ccccc12	-6	?	?	-14%
CCOC(=O)Cc1c(Sc2ccccc2)c2cc(C)ccc2n1C	-8	-1.4%	-3%	0%
CC(=O)NC12CC3CC(CC(CC(=O)O)(C3)C1)C2	-3	-3.0%	-2%	0%
C[C@@]12C(=O)NCC(=O)N1[C@@H]1c3cc(Br)ccc3OC[C@@H]1[C@@H]2c1ccccc1	.	-0.8%	-20%	.
COc1cc(OC)c(C(=O)OCC(=O)Nc2nnc(-c3ccccc3)o2)cc1OC	.	-1.0%	?	.
CCn1cc(C(=O)N2CCN(c3ccc(F)cc3)CC2)c2cc(OC)c(OC)cc2c1=O	2	4.3%	15%	-2%
O=C1C2C3c4ccccc4C(c4ccccc43)C2C(=O)N1Cc1cccnc1 (stereo not drawn)	-14	-6.2%	-21%	-6%
COc1ccc(NC(=O)c2ccc(COc3ccc(C)cc3)o2)cc1	-1	-1.3%	-1%	-27%
CCCC(=O)Nc1ccc(C(=O)N2CCCC2)cc1	-4	2.5%	-4%	-8%
CC(C)(C)NC(=S)N/N=C\c1ccc(-c2ccc([N+](=O)[O-])cc2)o1	-14	?	?	-25%
CCC(=O)c1cn(CC(=O)NCc2ccco2)c2ccccc12	8	?	-3%	-39%
O=C(C1=C[C@H](c2ccc(C(F)(F)F)cc2)C[C@H](OCc2ccc(CO)cc2)O1)N1CCCCCCC1	-2	0.5%	-14%	13%
O=C(COC(=O)c1ccc[nH]c1=O)Nc1cc(S(=O)(=O)N2CCCCCC2)ccc1Cl	.	3.9%	0%	.
COc1ccc(C)cc1S(=O)(=O)N1CCN(C/C=C/c2ccccc2)CC1	.	1.3%	-18%	.
COc1ccccc1C(CNC(=O)c1ccc(C)c(S(=O)(=O)N2CCCCC2)c1)N1CCCC1 (stereo not drawn)	.	0.2%	0%	.
O=S(=O)(Nc1ccc(O)c(Sc2nc3ccccc3s2)c1)c1cccc2ccccc12	1	8.4%	3%	27%
COc1cccc(-c2cc(=O)c3cc(NC(=O)c4ccc(Cl)cc4)ccc3[nH]2)c1	3&0	-2.2%	-9%	18%
Cc1cn(CC(=O)NCCNc2ccc([N+](=O)[O-])cn2)c(=O)[nH]c1=O	.	-3.6%	12%	.
Cc1ccc(S(=O)(=O)/N=C(/Nc2ccc([N+](=O)[O-])cc2)c2ccccc2)cc1	.	5.9%	15%	-4%
Cc1ccc(Sc2ncccc2C(=O)NCC(c2ccc(F)cc2)N2CCOCC2)c(C)c1 (stereo not drawn)	.	-0.3%	-13%	.
Cc1ccc(C2C(C(=O)c3ccco3)=C(O)C(=O)N2c2ncccn2)cc1 (stereo not drawn)	-14	0.8%	-9%	-5%
COc1ccc(NC(=O)Cn2c(=O)n(CC3CCCO3)c(=O)c3ccccc32)c(OC)c1 (stereo not drawn)	3[21.1 µM]	0.0%	-3%	1%&-3%
CC(C)CCn1c(SC(C)C(=O)NC2CC2)nc2ccccc2c1=O (stereo not drawn)	.	-0.5%	0%	.
COc1ccc(C(=O)NNC(=O)c2ccccn2)cc1	1	1.2%	5%	?
COc1ccc(OCC(=O)N2CCN(C(=O)c3cccc(F)c3)CC2)cc1	-10	-0.6%	-4%	3%
CCCCOC(=O)Nc1ccc(N2CCOCC2)cc1	-2	3.3%	5%	-77%
O=C1Nc2cc(Cl)c(Cl)cc2N(O)N1c1ccccc1Cl	-5	-2.3%	3%	-4%
Cc1ccc2nc(N(CCCN(C)C)C(=O)c3ccc4c(c3)CCCC4)sc2c1	-4	-5.9%	9%	3%

(listing goes on)
SMILES	GLA inh pH 4.5	Rango-impB inh	Rango release inh	miR-21 FLuc
COc1cc(NC(=O)CCN2CCN(Cc3ccccc3)CC2)cc(OC)c1	-1	-2.2%	-6%	-11%
COC(=O)c1cc(C#N)c(SCc2ccccc2)nc1C	5	3.7%	-7%	-22%
COc1ccc(NC(=O)NCCCN2CCCC2=O)c(OC)c1	3	0.4%	2%	0%
CCc1cc2c(nc1CC)CCN(CC/C(C)=N/OC[C@H]1O[C@H](c3ccccc3)C=C[C@@H]1Oc1ccc(OC)cc1)C2	-7	.	.	0%
COc1cccc(CNC(=O)c2ccccc2C(=O)NC(C)(C)C(=O)NCc2cccc(OC)c2)c1	.	-5.0%	1%	0%
COc1ccc(C2=NNC(c3ccco3)=Nc3ccc(F)cc32)cc1	4	5.8%	-9%	-7%
CCOC(=O)N1CCN(C(=O)c2cccc(S(=O)(=O)Nc3ccccc3Cl)c2)CC1	.	-0.5%	-8%	.
Cc1cccc(Oc2ccccc2N)c1	2	4.4%	?	-2%
CN(C)c1ccc(NC(=O)c2ccncc2)c2ccccc12	0	0.2%	-17%	-8%
COc1cc(C(=O)Nc2ccc3nc(N4CCOCC4)sc3c2)cc(OC)c1OC	.	?	4%	.
Cc1nnc(SCc2cccc3ccccc23)n(N)c1=O	-18	-3.1%	22%	-17%
CC(NC(=O)c1c(O)c2ccccc2[nH]c1=O)c1ccccc1 (stereo not drawn)	.	-3.6%	3%	0%
COc1ccc(-c2csc(N(C)C(=O)c3cccs3)n2)cc1	8	-3.1%	1%	-42%
Cc1cc(Cl)cc(Cl)c1OCC(=O)NCc1ccco1	4	-0.7%	2%	-14%
Cc1nc(S(=O)(=O)Nc2ccccc2C(=O)NCC2CC2)cn1C	10	0.1%	-9%	5%
Oc1ccc(/C=N/Nc2ccc(C(F)(F)F)cn2)cc1O	-3	-1.6%	0%	-99%
CSc1cccc(NCc2ccc([N+](=O)[O-])cc2)c1	-4	7.5%	0%	1%
Oc1cccc2ccc(/C=C/c3cccs3)nc12	-6	-7.5%	-22%	-34%
CN(C)CCCNc1cn[nH]c(=O)c1Cl	6	-1.2%	-11%	0%
CCOc1ccccc1N(CC(=O)NCCc1ccc(OC)c(OC)c1)S(=O)(=O)c1ccccc1	.	3.0%	4%	-3%
COc1ccccc1-c1sc2ccccc2c1C#CC1(O)CCCCC1	.	-0.1%	-1%	.
O=C(N/N=C/c1ccco1)c1cc(-c2ccccc2)n[nH]1	-3	2.3%	14%	-12%
Cc1nn(Cc2c(Cl)cccc2Cl)c(C)c1NC(=O)c1sc2ccccc2c1Cl	10	0.1%	-4%	-8%
O=C(Nc1ccc(Cl)cc1)C1CCN(C(=O)c2ccco2)CC1	.	2.8%	-7%	-7%
CCc1ccc(-c2nn(-c3ccccc3)cc2CSC(=N)N)cc1	-28	2.1%	12%	?
